Assay outcomes: PubChem BioAssay, National Center for Advancing Translational Sciences (NCATS)
ClpP mod – qHTS Assay for Activators of ClpP; Potency, µM (top dose mostly 57.5 µM), for the others: at the highest dose activity change, negative = active; 1.9% of 340,000 active; ATP-dependent Clp protease proteolytic subunit (Bacillus subtilis (strain 168)), P80244; purified B. subtilis ClpP, FRET peptide cleavage, 20 min; active = well fitted falling curve with a large enough effect; inconclusive = small, poorly fitted or top-dose-only effect; inactive = no such curve, though single readings can be large or run the other way; further: potency means the concentration at half of the fitted maximal effect; the source files actives as falling curves though it sought activators and does not explain the sign; nearly all actives have a fitted effect of over 65% in size; many hits overshoot -100%
Target sequence (P80244 whole entry, looked up): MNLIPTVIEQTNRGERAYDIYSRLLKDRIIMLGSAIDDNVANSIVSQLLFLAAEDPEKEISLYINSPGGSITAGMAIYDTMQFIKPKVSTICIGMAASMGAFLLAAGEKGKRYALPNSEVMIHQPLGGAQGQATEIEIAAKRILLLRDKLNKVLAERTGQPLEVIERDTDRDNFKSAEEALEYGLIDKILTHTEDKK
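Buffer: 100 mM Tris/HCl pH8, 100 mM KCl, 0.05% low protease BSA, 2.5% glycerol, 0.01% Tween-20. ClpP 10 microg/mL final; 20 min RT; delta FRET normalized to ADEP and DMSO controls.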
TRPML1 blocker – blocks the human TRPML1 channel; 0.02% of 390,000 active; activity change, negative = inhibition, % (test concentration not listed); TRPML1-inducible cells, Ca2+ dye fluorescence, FDSS; hits give low values; inhibition of EC80 agonist-evoked calcium signal; AID 624415; Q9GZU1; in the data active means activity change below about -50%; inconclusive means about -30% to -50%; inactive means above about -30%;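 further: stimulus is agonist 54-4 at its EC80 concentration; on the % scale 0 is the no-effect control and ±100 the full control effect; compound concentration not given in the record; the text of the record puts the active cut at -80%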
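TRPML1-DL cells, Tet-induced overnight (~16 h, 37 °C) at 1,500 cells/well, were loaded with Ca8 no-wash dye plus quencher for 45-90 min at room temperature. Compounds were pinned during FDSS kinetic reading; agonist 54-4 at EC80 (4 uM final) then added.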
Menin-MLL FL inh – menin-MLL binding inhibition, fluorescein peptide | 290,000 tested, under 10 active | Fluorescence polarization, fluorescein-MLL peptide displacement from menin | FP activity change, % at 61.4 µM; inconclusive = falling polarisation curve, or a change in total fluorescence; inactive = total fluorescence flat and polarisation flat or rising; no compound was filed as active; the % refers to the polarisation; negative = inhibition;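 further: % of control where 0% means no effect; inhibitors lower the polarisation; unlabelled MLL peptide was the positive control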
TRPV1 PAM – potentiators of human vanilloid receptor 1 (TRPV1); Q8NER1; TRPV1-expressing cells, Fluo-8 calcium influx, capsaicin EC20 potentiation; host cell line not named in the record; control for the full effect not named in the record; potentiation, % at 8.33 µM; 0.02% of 320,000 active; AID 540277; active means potentiation above 80%; inconclusive means 30% to 80%; inactive means below 30%; further: 0% is about no effect
Target sequence (Q8NER1 whole entry, looked up): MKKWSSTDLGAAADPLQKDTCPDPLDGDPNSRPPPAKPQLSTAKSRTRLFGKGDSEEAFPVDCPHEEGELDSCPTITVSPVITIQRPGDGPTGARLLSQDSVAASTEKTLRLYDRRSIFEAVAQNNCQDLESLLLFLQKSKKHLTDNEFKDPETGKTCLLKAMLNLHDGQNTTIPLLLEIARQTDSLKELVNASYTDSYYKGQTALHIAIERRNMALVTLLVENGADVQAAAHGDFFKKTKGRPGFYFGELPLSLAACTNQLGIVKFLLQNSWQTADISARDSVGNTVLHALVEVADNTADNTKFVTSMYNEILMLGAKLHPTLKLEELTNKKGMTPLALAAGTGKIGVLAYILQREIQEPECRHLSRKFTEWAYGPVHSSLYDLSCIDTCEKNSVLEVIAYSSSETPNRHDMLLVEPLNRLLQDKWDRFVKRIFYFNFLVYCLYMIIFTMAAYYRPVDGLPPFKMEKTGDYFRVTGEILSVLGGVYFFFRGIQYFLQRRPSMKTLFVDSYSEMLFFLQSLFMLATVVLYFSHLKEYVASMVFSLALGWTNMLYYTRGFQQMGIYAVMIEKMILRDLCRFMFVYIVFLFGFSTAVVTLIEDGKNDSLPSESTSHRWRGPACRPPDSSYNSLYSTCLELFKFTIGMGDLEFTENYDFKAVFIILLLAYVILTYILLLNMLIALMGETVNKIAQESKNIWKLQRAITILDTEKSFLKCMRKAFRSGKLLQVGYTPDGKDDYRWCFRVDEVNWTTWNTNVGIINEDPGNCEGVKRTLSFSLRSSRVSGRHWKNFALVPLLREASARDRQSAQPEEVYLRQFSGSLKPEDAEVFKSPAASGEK
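Cells expressing TRPV1 were dye-loaded with Fluo-8 and read kinetically: 10 s baseline, 3 min after compound (agonist portion), then 2 min after EC20 capsaicin (allosteric enhancer portion). Calcium-bound dye fluorescence at 480/520 nm.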
PINK1 modulator – modulators of PINK1 expression; PINK1 immunofluorescence, high-content cytometry, 24 h; Potency, µM (titrated, usually from 76.6 µM), for the others: at the top dose activation (PINK1 increase), most hits filed as activators; 0.2% of 410,000 active; active = well fitted activation curve with a large enough effect; inconclusive = small, poorly fitted or top-dose-only effect; inactive = flat fitted curve, though single readings scatter; cell line not stated here;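 further: potency means the concentration at half of the fitted maximal effect; % of control where 0% means no effect; nearly all actives have a fitted effect of over 65% in size; a mitochondrial uncoupler was the plate control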
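Stable cell line, 250 cells/well, 12 h attachment; compounds pinned at 5 concentrations, 24 h; CCCP control. Fixed with nuclear dye, primary antibodies 12 h at 10 degrees C, secondary plus cell stain; laser-scanning cytometer read.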
Sfp PPTase inh – inhibitors of Bacillus subtilis Sfp phosphopantetheinyl transferase. 3.5% of 310,000 active. Biochemical Sfp PPTase activity, qHTS. Potency, µM, for the others: max response, negative = inhibition, usual class: inhibitors. Q9F4F7; active means well fitted inhibition curve with a large enough effect; inconclusive means small, poorly fitted or top-dose-only effect, or another doubt; inactive means no such curve, though single readings can be large or run the other way;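 further: the enzyme is Sfp with the accession as filed and its product quenches rhodamine fluorescence; potency means the concentration at half of the fitted maximal effect; 0% = enzyme reaction without inhibitor and -100% = no enzyme wells; top concentration of the series not given in the record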
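Compounds were incubated with enzyme (final 15 nM) for 15 min at room temperature before substrate addition started the reaction. Fluorescence at 525 nm excitation, 598 nm emission was recorded immediately and after 30 minutes.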
TRPML1 ag – agonists of human TRPML1 channel; TRPML1-expressing cells, Ca2+ dye fluorescence, FDSS; host cell line not named in the record; reference of the full effect not given here; activation, % (concentration not given with the values); 0.12% of 410,000 active; AID 624414; in the data active = activation above about 50%; inconclusive = about 30% to 50%; inactive = below about 30%; further: 0% is about no effect; the text of the record puts the active cut at 80%
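TRPML1-DL cells, Tet-induced overnight (~16 h, 37 degrees C), loaded 45-90 min at room temperature with Ca8 no-wash calcium dye plus quencher. FDSS fluorescence: 10 s baseline, compound pin-transfer, 110 s agonist read, then EC80 54-4 (4uM final) and 110 s antagonist read.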
* marks the source's active call; other numbers are inactive results; ? = inconclusive; . = no result given; [ ] = remark or other dose.

SMILES	ClpP mod	TRPML1 blocker	Menin-MLL FL inh	TRPV1 PAM	PINK1 modulator	Sfp PPTase inh	TRPML1 ag
COc1ccc2[nH]c3nc(SCC(=O)NNC(=O)c4ccc(OC)c(OC)c4)nnc3c2c1	0.1%	0	0.8	-1	17%[38.3 µM]	-5%	0.0
CC(C)(C)c1ccc(C(=O)NNC(=S)NCc2ccco2)cc1	.	9	1.3	5	0.3%	-11%	7.4
COCCN(CC1CCCN(C2Cc3ccccc3C2)C1)C(=O)CSC (configuration not stated)	-2.2%	.	-3.5	-24	0.2%	6%	.
COc1ccc(NC(=O)c2nc3nc(C)cc(C(F)F)n3n2)cc1OC	-0.4%	10	-1.0	?	-0.5%	19%	0.1
COc1ccc(OC)c(N(CCN2C(=O)c3ccccc3C2=O)C(=O)CCl)c1	0.2%	2	.	.	1.8%	.	-0.7
CCN(CC)C(=O)[C@H]1C[C@H](CC(=O)NCc2ccc(OC)c(OC)c2)C(=O)N2CCc3c([nH]c4cc(CCC(=O)N(C)C)ccc34)[C@]12C	0.4%	-15	.	.	0.5%	.	-0.8
CCOc1ccc(C(=O)Nc2ccc(S(=O)(=O)N3CCN(C)CC3)cc2)cc1	-3.7%	-9	6.7	28	-0.8%	3%	-1.5
Cc1ccccc1CC(=O)Nc1ccon1	-0.6%	20	-1.3	5	0.2%	10%	0.1
Cc1ccc(N2CC(C(=O)N3CCC(C(=O)Nc4cccc(Br)c4)CC3)CC2=O)cc1 (configuration not stated)	.	-3	5.4	-2	1.5%	-4%	-0.5
C(=N\n1cnnc1)/c1ccc(OCc2ccccc2)cc1	-0.6%	27	-0.7	?	11%[38.3 µM]	4%	1.4
Cc1oc2ccc(NS(=O)(=O)c3cccc4cccnc34)cc2c1C(=O)OC(C)C	-5.2%	-10	7.3	-5	-2.5%	7%	0.1
NC(=O)C1CCN(C(=O)CCSCc2ccc(Cl)c(Cl)c2)CC1	-7.5%	17	-0.3	14	-0.9%	13%	0.3
CCCCCCCCn1c(N2CCN(c3cccc(Cl)c3)CC2)nc2c1c(=O)[nH]c(=O)n2C	0.3%	3	-0.7	11	0.6%	-13%	-0.7
CCOc1ccccc1NC(=O)N(C)CCc1c(C)nn(CC)c1C	-2.7%	-21	.	.	-0.7%	.	1.1
Cc1cc(C(=O)N2CCCC(Nc3ccc(C(C)C)cc3)C2)nn1C (configuration not stated)	0.2%	-11	0.6	-14	2.0%	5%	0.6
Cc1ccc2ncnc(Oc3ncccc3[N+](=O)[O-])c2c1	-2.1%	5	1.6	-1	-0.6%	-14%	3.0
Cc1nc(CCNC(=O)C2CCC(=O)N(Cc3cccc(F)c3)C2)sc1C (configuration not stated)	0.4%	16	.	-38	-0.8%	18%	0.6
CC1CCC(C(C)C)[C@H](OC(=O)c2ccccc2)C1 (some centres not stated)	.	.	0.9	.	-0.4%	13%	.
Cc1cccc(C(=O)N(Cc2ccco2)Cc2ccccc2F)c1	-2.3%	-14	.	.	-0.5%	.	2.2
Cc1ccc(N2CC(c3nnc(Cc4ccc(F)cc4Cl)o3)CC2=O)cc1 (configuration not stated)	-0.1%	13	.	.	1.7%	.	1.0

2 of the compounds above, as labelled records:
> NC(=O)C1CCN(C(=O)CCSCc2ccc(Cl)c(Cl)c2)CC1
  ClpP mod: -7.5%; TRPML1 blocker: 17; Menin-MLL FL inh: -0.3; TRPV1 PAM: 14; PINK1 modulator: -0.9%; Sfp PPTase inh: 13%; TRPML1 ag: 0.3
> CCCCCCCCn1c(N2CCN(c3cccc(Cl)c3)CC2)nc2c1c(=O)[nH]c(=O)n2C
  ClpP mod: 0.3%; TRPML1 blocker: 3; Menin-MLL FL inh: -0.7; TRPV1 PAM: 11; PINK1 modulator: 0.6%; Sfp PPTase inh: -13%; TRPML1 ag: -0.7

Next part
SMILES	ClpP mod	TRPML1 blocker	Menin-MLL FL inh	TRPV1 PAM	PINK1 modulator	Sfp PPTase inh	TRPML1 ag
NC(=O)CN1CCN(c2nc(-c3ccc(F)cc3)cs2)CC1	1.5%	-3	12	3	-0.4%	4%	-1.2
CCN(CC)C(=O)CNC(=S)N(CCCN1CCOCC1)Cc1cccs1	0.6%	2	3.7	-10	-2.0%	6%	0.6
CCOC(=O)CNC(=O)CNC(=O)c1nn(-c2ccc(OC)c(Cl)c2)c(=O)c2ccccc12	-1.7%	-1	-2.3	0	-2.5%	29%	3.6
COc1ccc(CC(=O)Nc2cccc(-c3ccc4nncn4n3)c2)cc1OC	.	-20	-6.0	-3	1.2%	15%	1.0
O=S(=O)(c1ccccc1Cl)N1CCC(O)(c2cccnc2)CC1	.	7	-3.3	-4	0.3%	10%	-0.1
O=C1c2ccccc2-c2nnc(-c3ccc(F)cc3)cc21	.	-7	4.9	2	2.9%	22%	-0.2
C[C@H](CO)N1C[C@H](C)[C@H](CN(C)C(=O)Nc2ccccc2F)OCc2cnnn2CCCC1=O	-0.3%	-2	.	.	1.4%	.	0.0
COc1ccc(OC(=O)CCc2c[nH]c3ccccc23)cc1	.	-4	2.6	7	1.3%	9%	1.9
CCN(CC(=O)Nc1ccc(NC(C)=O)cc1)CC(=O)Nc1ccc(Cl)c(Cl)c1	0.9%	-3	0.4	10	2.7%	56µM*	-0.9
COc1ccccc1C1C(C#N)=C(N)Oc2cc(C)n(Cc3ccccn3)c(=O)c21 (configuration not stated)	-9.5%	12	?	?	0.1%[38.3 µM]	50µM*	0.0
COc1ccc(CNC(=O)c2cn(Cc3ccc(OC(C)=O)cc3)c(=O)s2)cc1	0.3%	.	.	.	0.4%	.	1.2
COc1ncc2nc(-c3cccs3)c(=O)n(CCc3ccccc3)c2n1	.	.	1.1	.	3.8%	2%	.
O=C(Nc1cccc(Cl)c1)Nn1cnnc1	1.4%	17	-0.3	-24	2.0%	5%	0.1
COc1ccc(CCN=C(NS(=O)(=O)c2ccc(Cl)cc2)c2ccccc2)cc1	.	-2	-0.1	2	-0.9%	1%	1.7
O=C(CC(=O)N/N=C/c1ccc(F)cc1)N/N=C/c1ccc(F)cc1	0.0%	22	6.3	-17	9.6%	17%	-0.8
CCCCSc1nnc(CSc2nc3nc(C)cc(C)n3n2)o1	-3.3%	-3	1.9	-10	0.6%[38.3 µM]	-20%	-0.1
COc1ccc([C@H]2CC(=O)C=C(c3ccc(-c4ccccc4)c(F)c3)C2)cc1OC	-11%	-7	.	-11	-0.2%	.	-0.6
N#CC1=C(N)C(C#N)(C#N)C(c2cccnc2)C2CN(C(=O)OCc3ccccc3)CC=C12 (configuration not stated)	9.3%	-2	1.0	-10	3.7%	-1%	0.8
COc1cccc(-n2nnc(-c3nc(-c4ccccc4F)no3)c2C)c1	-0.2%	51	.	.	0.4%	.	2.9
Nc1nc(SCC(=O)c2c(N)n(C3CC3)c(=O)[nH]c2=O)n[nH]1	-3.4%	-2	.	7	-0.1%	.	0.4
CCCCCCN1CC(C(=O)OCC)C(=O)C1=O (configuration not stated)	0.6%	-14	0.8	16	3.6%	-7%	0.2
O=C(NC1CCCCCC1)c1ccc(CS(=O)(=O)Cc2ccc(F)cc2)o1	-0.8%	21	.	-20	-2.1%	7%	-1.1
CC1=C(C(=O)OC2CCCC2)C(c2ccc(F)cc2F)CC(=O)N1 (configuration not stated)	0.6%	-16	.	.	5.2%	.	-1.0
COCCN1C(=O)c2ccccc2C1c1nnnn1C(C)C (configuration not stated)	-0.7%	.	.	.	0.4%	.	-0.3
CCOC(=O)N1CCN(C(=O)c2cc3cc(OC)c(OC)cc3[nH]2)CC1	3.5%	.	2.7	-25	0.4%	11%	.
COc1cccc(CNC(=O)c2cnc3sc(N4CCCC4)nn3c2=O)c1OC	?	1	.	.	0.5%	.	0.3
CC1CC(C)(C)NC(=S)N1CCC(=O)N1CCc2ccccc21 (configuration not stated)	-4.2%	27	-2.7	-5	1.7%	5%	0.1
O=C(O)Cc1c(O)ccc2ccccc12	?	7	1.3	-2	-0.3%	14%	0.7
Cc1ccc(CNC(=O)CSc2n[nH]c(N)n2)cc1	0.7%	30	5.5	19	1.0%	9%	-0.1
Cc1nc(C)c(C(=O)O)s1	-1.8%	18	-7.4	9	0.5%	11%	0.5
CCCS(=O)(=O)N1CCC(C(=O)NC2CCC(C)CC2)CC1 (configuration not stated)	-1.3%	-4	1.1	-6	-1.0%	3%	-0.6
COc1cc(CNCc2cccs2)ccc1OCc1cccs1	-1.9%	-14	1.4	-3	.	5%	0.3
O=C(Nc1ccc(S(=O)(=O)NCC2CCCO2)cc1)c1ccc(F)cc1 (configuration not stated)	.	10	-0.4	1	-0.6%	10%	-0.2
CC1CCN(C(=S)NC(=O)c2ccco2)CC1	0.2%	-7	.	6	1.0%	-15%	0.6
COc1ccc(C(=O)Nc2ccccc2C)cc1S(=O)(=O)N1CCOCC1	.	6	.	-4	1.0%	19%	-0.4
CCCc1cc(-c2nc(-c3ccc(Cl)cc3)cs2)ccn1	-24%	43	1.8	-16	?	40µM*	0.5
Cc1nc2c(ccc3nc(NC(=O)C(c4ccccc4)c4ccccc4)sc32)s1	2.0%	2	2.4	6	1.9%	34%[activator]	-0.9
COc1ccccc1CC(=O)NC1CCCc2ccccc21 (configuration not stated)	1.1%	-28	3.6	0	-0.8%	4%	2.0
Cc1cc(C(=O)COc2ccc(C#N)cc2)c(C)n1-c1ccc2c(c1)OCO2	1.2%	-4	2.1	8	10%	-4%	0.7
O=C(COc1cccc(C(F)(F)F)c1)Nc1cccnc1	0.5%	-3	-0.7	-11	-0.2%	10%	-0.6
COC(=O)c1ccc(C(c2c(C)[nH][nH]c2=O)c2c(C)[nH][nH]c2=O)cc1	1.5%	-4	-9.2	-4	0.2%	-13%	1.6
O=C(NNS(=O)(=O)c1ccc(Br)cc1)c1sccc1-n1cccc1	.	-5	1.1	13	0.0%	3%	-0.8
CCNC(=O)CN(c1ccc(C)cc1)S(=O)(=O)c1ccc(SC)cc1	-3.6%	-14	-2.8	-2	-2.1%	9%	0.5
COc1cccc2c1Oc1nc(-c3ccccc3)nc(SCC(=O)N3CCCCC3)c1C2	-2.9%	-18	.	.	-1.8%	.	1.6
Cc1cccc(NC(=O)c2cc([N+](=O)[O-])ccc2NCC2CCCO2)n1 (configuration not stated)	.	-3	-4.8	-2	2.5%	7%	-0.9
CC(=O)Nc1ccc(NC(=O)C(NS(=O)(=O)c2cccc3nsnc23)C(C)C)cc1 (configuration not stated)	0.0%	-17	.	-12	-1.1%	14%	-0.3
